High-throughput results deposited in PubChem by National Center for Advancing Translational Sciences (NCATS).
VDR inhibitor = inhibitors of human vitamin D receptor. VDR-SRC2-3 peptide fluorescence polarization, 2 h. Potency, µM, without a hit: max response, negative = inhibition, hits mostly inhibitors. hit rate 0.93% among 400,000; active means well fitted inhibition curve with a large enough effect; inconclusive means small, poorly fitted or top-dose-only effect, or another doubt; inactive means no such curve, though single readings can be large or run the other way; further: series mostly up to about 120 µM
Target sequence (P11473 whole entry, looked up): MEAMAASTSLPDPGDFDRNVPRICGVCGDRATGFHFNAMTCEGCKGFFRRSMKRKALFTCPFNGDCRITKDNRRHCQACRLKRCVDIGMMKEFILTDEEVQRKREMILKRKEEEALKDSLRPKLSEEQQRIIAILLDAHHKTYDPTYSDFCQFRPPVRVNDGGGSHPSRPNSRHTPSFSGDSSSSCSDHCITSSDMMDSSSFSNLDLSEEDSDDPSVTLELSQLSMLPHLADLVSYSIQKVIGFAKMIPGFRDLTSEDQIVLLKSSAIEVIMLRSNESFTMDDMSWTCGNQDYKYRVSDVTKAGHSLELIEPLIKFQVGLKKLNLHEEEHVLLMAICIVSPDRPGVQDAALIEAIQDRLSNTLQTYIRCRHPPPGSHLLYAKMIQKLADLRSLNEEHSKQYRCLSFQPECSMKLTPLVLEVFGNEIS
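FP read-out; VDR + SRC2-3 coactivator peptide; 23 nl compound by pintool; 2 h RT incubation; reagents held at 4 deg C, protected from light.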
An asterisk follows results filed as active; ? = inconclusive; & = joins results of further samples; [ ] = dose if it differs, or a comment. On the % scale 0 is the no-effect control and ±100 the full control effect; potency means the concentration at half of the fitted maximal effect. These rows are one share of the data. The share of hits here may be higher or lower than overall.

VDR inhibitor,compound
1%,O=C(Nc1ccc(S(=O)(=O)Nc2nccs2)cc1)c1ccc(S(=O)(=O)N2CCOCC2)cc1
-6%,CSc1nncc(/C(C)=N/O)n1
-7%,CCOc1ccc(C2CC(=O)n3nc(-c4ccc(C)cc4)nc3S2)cc1OC (stereo unspecified)
-1%,COC(=O)c1ccc(NC(=O)Cn2nc(C)c3ccccc3c2=O)cc1
18%,CC1=C(C(=O)OCCOC(C)C)C(c2cc3c(cc2Br)OCO3)CC(=O)N1 (stereo unspecified)
-8%,CCCN1C(=O)CC(Sc2ncccc2C(=O)O)C1=O (stereo unspecified)
-16%,CCOc1ccc(-c2nnc3ccc(SC(C)C)nn23)cc1
7%&-11%&8%,CC(=O)O[C@H]1C(=O)[C@@]2(C)[C@H]([C@H](OC(=O)c3ccccc3)[C@]3(O)C[C@H](OC(=O)[C@H](O)[C@@H](NC(=O)c4ccccc4)c4ccccc4)C(C)=C1C3(C)C)[C@]1(OC(C)=O)CO[C@@H]1C[C@@H]2O
-5%,COc1ccc(CNc2nc(=S)[nH]c3cc(OC)c(OC)cc23)cc1
5%,CNCC(=O)Nc1c(C)n[nH]c1C
19%,O=C(O)c1ccccc1Nc1ccc([N+](=O)[O-])c2nonc12
2%,Cc1nnc(SCc2nc3sc(C(=O)O)c(C)c3c(=O)[nH]2)s1
14%,COc1ccccc1CNC(=O)c1ccc(-c2ccccc2)cc1
-18%,O=C(CN1CCN(Cc2ccccc2Cl)C1=O)NCCCN1CCOCC1
-25%,O=C(COC(=O)c1ccccc1)Nc1ncc([N+](=O)[O-])s1
-9%,CCCn1c(N)c(C(=O)COC(=O)CCS(=O)(=O)c2ccc(C)cc2)c(=O)[nH]c1=O
-13%,CC(=O)OCC1=C(C(=O)O)N2C(=O)C(NC(=O)c3ccc(F)cc3)C2SC1 (stereo unspecified)
13%,CN1CCN(CC(=O)Nc2ccc(Oc3ccccc3)cc2)CC1
6%,COc1ccc(S(=O)(=O)NN(C)c2nc(C(F)(F)F)nc3ccccc23)cc1
-17%,O=C1N[C@@H](Cc2cnc[nH]2)C(=O)N2CCC[C@@H]12
-12%,COc1ccc(NC(=O)N2CCOc3ccc(Cl)cc32)cc1
-1%,CCc1ccccc1NC(=O)CN1C(=O)c2ccccc2S1(=O)=O
-16%,COc1ccc(-c2oc3ncn4nc(-c5cccc(C)c5)nc4c3c2-c2ccc(OC)cc2)cc1
-5%,CN(CCCNC(=O)c1cccn2c(=O)c3ccccc3nc12)Cc1ccccc1
-10%,Cc1cccc(N2CCN(C(=O)c3cccc(S(=O)(=O)N4CCOCC4)c3)CC2)c1C
32µM*,CCc1oc2ccccc2c1C(=O)c1cc(I)c(O)c(I)c1
-10%,Cc1nnc(NC(=O)CSc2nnc(C)n2-c2ccc(F)cc2)s1
7%,O=C(O)c1ccc(C(=O)c2ccc3c(c2)C(=O)N(CCO)C3=O)cc1
6%,CCOc1ccc(N2CC(C(=O)NC3CCSC3=O)CC2=O)cc1 (stereo unspecified)
-19%,N#CC(c1cccc(Cl)c1)c1ncc(C(F)(F)F)cc1Cl (stereo unspecified)

Part of the list above, field by field.
> O=C(CN1CCN(Cc2ccccc2Cl)C1=O)NCCCN1CCOCC1
  VDR inhibitor: -18%
> O=C(COC(=O)c1ccccc1)Nc1ncc([N+](=O)[O-])s1
  VDR inhibitor: -25%

Other structures follow.
VDR inhibitor,compound
-1%,CCC(Oc1ccccc1)C(=O)Nc1ccc(OCc2cc(=O)n3ccccc3n2)cc1 (stereo unspecified)
1%,CC(C)CNC(=O)C(=O)Nc1ccc(N(C)C)cc1
-1%,CCOC(=O)[C@H]1[C@H]2COc3ccccc3[C@@H]2N2C(=O)c3ccccc3NC(=O)[C@@]12C
7%,O=C(O)CCc1ccc(-c2cccs2)n1NC(=O)c1ccc(O)cc1
2%,O=S(=O)(Nc1cccc(S(=O)(=O)N2CCCC2)c1)c1ccccc1F
-2%,Cc1c2c(nc3ccccc13)OCC2
-18%&5%,O=C(CCCN1CCN(c2ccccn2)CC1)c1ccc(F)cc1
-13%,O=C(CNS(=O)(=O)c1ccc2ccccc2c1)NCCc1ccccn1
-3%&-14%&-10%&7%,c1ccc(CNc2ncnc3nc[nH]c23)cc1
-18%,CN(Cc1cccs1)C(=O)COc1ccc(-c2nnco2)cc1
7%,Cc1ccc(NC(=O)C(C)OC(=O)c2cc(=O)[nH]c3ccccc23)cc1S(=O)(=O)N1CCOCC1 (stereo unspecified)
-14%,Cn1cnnc1SCC(=O)c1ccc2c(c1)CCCC2
1%,CC1(C(=O)CSc2nc3ccccc3[nH]2)CCC(=O)O1 (stereo unspecified)
-12%,Cc1nc(N2C(=O)c3oc4ccccc4c(=O)c3C2c2ccccc2F)sc1C (stereo unspecified)
-3%,O=C(N/N=C(\c1ccccc1)c1cccnc1)c1ccc(O)cc1
-7%,Cc1cccc(-c2nc3cc(NC(=O)c4ccc(OCC(C)C)cc4)ccc3o2)c1
-1%,CCCN1C(=O)/C(=C/c2ccc(C)s2)SC1=Nc1ccc(OC)cc1
-5%,CCOC(=O)c1c(C(C)(C)C)oc2ccc(O)cc12
-8%,Cc1c(C(=O)N(CCC#N)c2ccccc2)sc2nc3n(c(=O)c12)CCCC3
-12%,CC(C)c1nnc2n1N=C(c1ccc(Cl)cc1)CS2
-11%,COc1ccc(Cl)cc1S(=O)(=O)NC(C)C(=O)NCc1cccnc1 (stereo unspecified)
2%,CC(=O)N(Cc1cccnc1)c1nc2c(C)cc(C)cc2s1
-2%,CC(C)CNc1nc(Oc2ccc(=O)n(C)n2)nc(N2CCOCC2)n1
-2%,CC(C)(C)c1ccc(C(=O)N2CCC(c3nc(-c4ccc(S(=O)(=O)N5CCCC5)cc4)no3)CC2)cc1
9%,CCCCN(CCCC)C(=O)c1cc2c(=O)n3ccccc3nc2s1
0%,CC(=O)OC1C=C[C@@H](OC(C)=O)C1 (stereo partly specified)
-5%,Cc1ccc(-n2nnnc2SCC(=O)c2cc(C)n(-c3cc(C)on3)c2C)cc1
-14%,Nc1nc(/C=C/c2cccnc2)nc(-c2ccccc2O)n1
1%,Cc1ccccc1NC(=O)CN1C(=O)C(C)(C)c2ccccc21
4%,Cc1cccc(N(C)S(=O)(=O)c2cc3[nH]c(=O)c(=O)[nH]c3cc2C)c1

Four compounds already listed, ordered by the value under VDR inhibitor, ascending:
| Compound | VDR inhibitor |
| --- | --- |
| Cc1nc(N2C(=O)c3oc4ccccc4c(=O)c3C2c2ccccc2F)sc1C (stereo unspecified) | -12% |
| CCCN1C(=O)/C(=C/c2ccc(C)s2)SC1=Nc1ccc(OC)cc1 | -1% |
| CC1(C(=O)CSc2nc3ccccc3[nH]2)CCC(=O)O1 (stereo unspecified) | 1% |
| O=C(O)CCc1ccc(-c2cccs2)n1NC(=O)c1ccc(O)cc1 | 7% |

Structures above that contain a furan ring, fused or not, in the order listed:
VDR inhibitor,compound
-16%,COc1ccc(-c2oc3ncn4nc(-c5cccc(C)c5)nc4c3c2-c2ccc(OC)cc2)cc1
32µM*,CCc1oc2ccccc2c1C(=O)c1cc(I)c(O)c(I)c1
-5%,CCOC(=O)c1c(C(C)(C)C)oc2ccc(O)cc12

(continued)
VDR inhibitor,compound
-4%,Cn1c(=O)cc(OCCCC(=O)N2CCN(Cc3ccc4c(c3)OCO4)CC2)c2ccccc21
-2%,Cc1cc(C)cc(NS(=O)(=O)c2c(C(=O)N3CCCCCC3)c(C)n(C)c2C)c1
-6%,O=C(Nc1ccc(-c2nc3ncccc3o2)cc1)c1ccc([N+](=O)[O-])o1
14%,Cc1ccc(C(=O)OCC(=O)Nc2c(C)n(C)n(-c3ccccc3)c2=O)cc1[N+](=O)[O-]
-9%,Cc1ccc(C(=O)NCc2ccc3c(c2)OCO3)cc1Cl
-10%,Cc1nnsc1C(=O)NC1CCCc2c1cnn2-c1ccc(C(C)(C)C)cc1 (stereo unspecified)
18%,O=C(COC(=O)c1c[nH]c(=O)[nH]c1=O)Nc1ccccc1
3%,CCCNC(=O)Cc1c(C)oc2ccccc12
-7%,CCCc1cc2c(cc1NC(=O)Cc1ccccc1)OCO2
-5%,Cc1cc(C)nc(NC(=O)c2ccc(Cl)c(Cl)c2)n1
-21%,CC(=O)NC(=S)Nc1ccc([N+](=O)[O-])cc1C
4%,COc1ccc(NC(=O)Cn2c(=O)n(CC(=O)NCc3ccco3)c(=O)c3ccccc32)cc1OC
-7%,COc1cccc(CNc2ccc3c(c2)nc(C)n3C)c1OC
8%,Cc1ccc(S(=O)(=O)NCC(=O)OC(C)C(=O)Nc2ncc(Cl)cc2Cl)cc1 (stereo unspecified)
-2%,Cc1ccnc(NS(=O)(=O)c2ccc(NC(=O)Cc3ccccc3)cc2)n1
11%,O=C(Nc1ccc(Cl)cc1)OCc1cn(-c2ccc(Cl)cc2)nn1
-10%,CN1N=C(C(C)(C)C)CSC1=Nc1ccc(F)cc1
-6%,COc1cc(Cn2c(=O)oc3ccc(C)cc32)ccc1OCCC(C)C
-8%,CCCS(=O)(=O)c1nc(S(=O)(=O)c2ccc(Cl)cc2)c(N2CCC(O)CC2)s1
-21%,O=C(COCc1ccccc1)N[C@@H]1c2ccccc2CC[C@@H]1OCc1ccccc1
25%,COc1ccc(N(CC(=O)NC2CCCCC2C)S(=O)(=O)c2c(C)nn(C)c2C)cc1 (stereo unspecified)
4%,CCOC(=O)N1CCN(S(=O)(=O)c2ccc(OCC)c(C)c2)CC1
-19%,Fc1cccc(Cl)c1CSc1nnc2ccccn12
-3%,COc1ccc(/C=C\c2onc(C)c2S(=O)(=O)N2CCC(C(=O)Nc3cccc(Cl)c3)CC2)cc1
2%,COc1ccc2c(CNC3CCCCCC3)c(C(=O)O)n(Cc3ccc(C)cc3)c2c1
-7%,CC(C)CC(=O)Nc1ccc(C(=O)CN2CCC(C)CC2)cc1
-27%,COc1ccc(S(=O)(=O)N2CCSCC2)cc1
-1%,Cc1cc(C)n(C(N)=NC(=O)c2ccc([N+](=O)[O-])cc2)n1
12%,Cc1cc(C)cc(NC(=O)CCc2c(C)nc3nc(CNC(=O)c4cccc(F)c4)nn3c2C)c1
2%,Cc1ccc(-n2c(SCc3nc(-c4ccccc4C)no3)nnc2-c2ccncc2)cc1C

(more compounds)
VDR inhibitor,compound
-3%,Cc1ccc(NC(=O)c2ccccc2SCC(=O)N2CCCC2)cc1S(=O)(=O)N(C)C
15%,CC(=O)c1cn(-c2ccc(Cl)cc2)c(=O)n(Cc2ccc(Br)cc2)c1=O
31%[activator],CCOc1ccc(C(CC(=O)O)NC(=O)Cc2ccccc2)cc1OC (stereo unspecified)
24%,Fc1ccccc1CN1CCCC(NC2CCC2)C1 (stereo unspecified)
6%,Cc1[nH][nH]c(=O)c1N=Nc1ccccc1
9%,Cc1ccc(-c2nnn(CC(=O)N(CC(=O)NC3CCCC3)c3ccc(F)c(Cl)c3)n2)o1
-10%,CC(C)(C)c1ccc(S(=O)(=O)Nc2ccc(O)c(Sc3nc4ccccc4s3)c2)cc1
-15%,O=C(Nc1ccc(F)cc1F)NC1CCCc2ccccc21 (stereo unspecified)
-21%,Cc1cccc(CN2C(=O)c3ccccc3S(=O)(=O)c3ccc(C(=O)N(C)Cc4ccccc4)cc32)c1
?,C=C1C(=O)OC2C=C(CO)C3OC3C3OC3(C)CC(OC(=O)/C(=C/C)COC(C)=O)C12 (stereo unspecified)
23%,COC(=O)CN1C(=O)CSc2ncccc21
18%,COC(=O)c1ccccc1NC(=O)CCCn1nc(C)c2sc3ccccc3c2c1=O
-20%,COc1ccc([N+](=O)[O-])cc1NC(=O)C(C)OC(=O)Cc1ccc(OC)c(OC)c1 (stereo unspecified)
?,COc1cc(C(=S)N2CCCC2)ccc1O
-9%,CCOc1ccc(CCNC(=O)c2cc3c(-c4cccc(OC)c4)nn(C)c3s2)cc1OCC
6%,Cc1ccc(Cn2nnc3c(=O)[nH]c(C(=O)NCc4ccco4)nc32)cc1
15%,COc1ccc(OC)c(Nc2nc(NCc3ccco3)c3ccccc3n2)c1
9%,COc1ccc(NS(=O)(=O)c2cccc(C(=O)N3CCCCCCC3)c2)cc1
-3%,COc1ccc(S(=O)(=O)N(Cc2cc3cc(C)ccc3[nH]c2=O)CC2CCCO2)cc1 (stereo unspecified)
-13%,CCOc1ccc(NC(=O)CSc2nc(N3CCOCC3)nc(N3CCOCC3)n2)cc1
-5%,O=C(CSc1nccn1Cc1ccccc1)Nc1ccc2c(c1)OCO2
14%,CC1(C)NC(=O)N(CC(=O)OCC(=O)c2ccc(Cl)s2)C1=O
6%,COc1ccc(-n2cc(-c3ccccc3)nc2SCC(=O)Nc2ccccc2)cc1Cl
-15%,CC(C)(C)N1C(=O)[C@H]2[C@@H](c3ccc(Br)cc3)N3C(=O)N(c4ccccc4)C(=O)[C@@]3(Cc3ccccc3)[C@H]2C1=O
?,O=c1oc2ccccc2c2c1SC(C(F)(F)F)C2 (stereo unspecified)
-14%,COc1ccc(-c2nnc(C3CCN(S(=O)(=O)c4ccc(C)c(C)c4)CC3)o2)cc1
9%,CN(CC(=O)NCCc1ccc(F)cc1)Cc1ccc(Br)cc1
3%,Cc1ccccc1Oc1cccc(C(=O)/C(C#N)=C/N(C)C)c1
3%,Cc1ccc(OCc2nc(-c3ccc(C(=O)NCCc4ccc(S(N)(=O)=O)cc4)cc3)oc2C)cc1
0%,O=S(=O)(c1ccccc1)c1nc(-c2ccco2)oc1NCc1ccccc1
2%,CC(C)C[C@H]1CNC(=S)N1CC1CCCN1C[C@H](Cc1ccccc1)N1C[C@H](Cc2ccc(O)cc2)N(CC2CCCCC2)C1=S (stereo partly specified)
9%,CN(C)c1ccc(CNc2ccc3c(c2)ncn3C)cc1

Reprinted at random: two entries already listed.
VDR inhibitor,compound
6%,Cc1[nH][nH]c(=O)c1N=Nc1ccccc1
9%,Cc1ccc(-c2nnn(CC(=O)N(CC(=O)NC3CCCC3)c3ccc(F)c(Cl)c3)n2)o1
